Sfp inh: blocks B. subtilis Sfp PPTase activity | actives 3.5% (n = 310,000) | Potency, µM, without a hit: max response, negative = inhibition, actives largely listed as inhibitors | Biochemical Sfp PPTase activity, qHTS; active means well fitted inhibition curve with a large enough effect; inconclusive means small, poorly fitted or top-dose-only effect, or another doubt; inactive means no such curve, though single readings can be large or run the other way;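 further: the enzyme is Sfp with the accession as filed and its product quenches rhodamine fluorescence; potency means the concentration at half of the fitted maximal effect; 0% = enzyme reaction without inhibitor and -100% = no enzyme wells; top concentration of the series not given in the record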
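After 15 min at room temperature with compound, 15 nM Sfp received 5 uM rhodamine-CoA plus 12.5 uM BHQ-2-ybbR (50 mM Hepes pH 7.6, 10 mM MgCl2). Rate came from the fluorescence difference over 30 min, ex 525/em 598 nm.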
ClpP mod: qHTS Assay for Activators of ClpP; actives 1.9% (n = 340,000); Potency, µM (series often up to 57.5 µM), without a hit: at the highest dose activity change, negative = active; ATP-dependent Clp protease proteolytic subunit (Bacillus subtilis (strain 168)), P80244; AID 651965, 2013; purified B. subtilis ClpP, FRET peptide cleavage, 20 min; active = well fitted falling curve with a large enough effect; inconclusive = small, poorly fitted or top-dose-only effect; inactive = no such curve, though single readings can be large or run the other way; further: potency means the concentration at half of the fitted maximal effect; the source files actives as falling curves though it sought activators and does not explain the sign; nearly all actives have a fitted effect of over 65% in size; many hits overshoot -100%
Target sequence (P80244 whole entry, looked up): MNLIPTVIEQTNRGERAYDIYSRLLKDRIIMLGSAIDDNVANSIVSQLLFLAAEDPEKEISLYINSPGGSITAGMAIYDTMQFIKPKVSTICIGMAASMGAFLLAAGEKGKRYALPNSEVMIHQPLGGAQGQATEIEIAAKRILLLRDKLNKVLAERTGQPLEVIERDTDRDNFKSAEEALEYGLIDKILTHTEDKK
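ClpP 10 microg/mL final, pH 8 Tris/KCl buffer with BSA, glycerol, Tween-20; compound pinned in; FRET-FV substrate; RT 20 min; Ex320/Em430; ΔFRET vs ADEP 5.8 microM, DMSO, no enzyme.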
Menin MLL FP FL: menin-MLL binding inhibition, fluorescein peptide; AID 1766; FP activity change, % at 61.4 µM; Fluorescence polarization, fluorescein-MLL peptide displacement from menin; 290,000 tested, under 10 active; inconclusive = falling polarisation curve, or a change in total fluorescence; inactive = total fluorescence flat and polarisation flat or rising; no compound was filed as active; the % refers to the polarisation; negative = inhibition;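 further: % of control where 0% means no effect; inhibitors lower the polarisation; unlabelled MLL peptide was the positive control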
D2 potentiator: potentiates the human D2 dopamine receptor allosterically; DiscoveRx D2 beta-arrestin cells, luminescence, 90 min; 100% = 57 uM dopamine signal; actives 0.23% (n = 360,000); potentiation, % (test concentration not listed); AID 624464; P14416; active = potentiation of 50% or more; inconclusive = 30% to 50%; inactive = 30% or less;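 further: compound concentration not given in the record; tested on top of an EC20 dose of dopamine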
Target sequence (P14416 whole entry, looked up): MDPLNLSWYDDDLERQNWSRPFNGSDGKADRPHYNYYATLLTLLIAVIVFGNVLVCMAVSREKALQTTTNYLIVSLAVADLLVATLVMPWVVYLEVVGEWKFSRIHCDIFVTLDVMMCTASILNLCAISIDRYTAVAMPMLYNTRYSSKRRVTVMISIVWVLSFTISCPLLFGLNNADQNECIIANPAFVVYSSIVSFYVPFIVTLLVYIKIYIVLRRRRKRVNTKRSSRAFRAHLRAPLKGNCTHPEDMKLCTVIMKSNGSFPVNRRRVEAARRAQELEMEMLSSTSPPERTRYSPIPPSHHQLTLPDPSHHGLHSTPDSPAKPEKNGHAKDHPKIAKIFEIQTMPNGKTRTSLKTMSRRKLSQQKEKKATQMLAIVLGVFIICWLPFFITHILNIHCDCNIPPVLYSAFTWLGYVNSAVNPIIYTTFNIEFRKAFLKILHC
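PathHunter beta-arrestin assay in DiscoveRx D2 cells. Compounds were added with an EC20 of dopamine (50 nM final) for 90 min at 37 deg C. Luminescence was read 1 h after detection reagent, with 57 uM dopamine as the EC100 control.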
gsp agonist: gsp mutant agonism; Potency, µM (doses to about 76.9 µM), for the others: top-dose activation (cAMP increase), actives largely listed as activators; gsp mutant cells, cAMP HTRF, 30 min; control for the full effect not named in the record; AID 624287; actives 0.13% (n = 340,000); active = well fitted activation curve with a large enough effect; inconclusive = small, poorly fitted or top-dose-only effect, or another doubt; inactive = no such curve, though single readings can be large or run the other way; cell line not stated here;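 further: phosphodiesterase inhibitor Ro 20-1724 added with compounds to block cAMP breakdown; potency means the concentration at half of the fitted maximal effect; nearly all actives have a fitted effect of over 60% in size; about a fifth of the inactives were tested at one dose only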
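Cells stably selected in G418 were plated at 2000/well, grown 16-24 hr, then given compounds in DMSO with the PDE inhibitor […] (300 uM solution added) for 30 min at 37C; cAMP was read by HTRF.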
gsp antagonist: antagonizes gsp, the McCune-Albright syndrome mutation; AID 624288; gsp-mutant cells, cAMP HTRF, 30 min; control for the full effect not named in the record; Potency, µM (highest dose often 76.9 µM), for the others: at the highest dose activity change, negative = inhibition, most hits filed as inhibitors; actives 0.4% (n = 340,000); active = falling curve of any shape with a large fitted effect; inconclusive = falling curve, mostly with a smaller effect; inactive = flat or rising curve; cell line not stated here;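 further: intracellular cAMP measured with PDE inhibitor Ro 20-1724 present during compound exposure; potency means the concentration at half of the fitted maximal effect; on the % scale 0 is the no-effect control and ±100 the full control effect; nearly all actives have a fitted effect of over 65% in size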
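G418-selected cells were plated in DMEM/10% FBS for 16-24 h at 37C, then treated with compounds plus the PDE inhibitor […] (300 uM solution added) for 30 min at 37C. Intracellular cAMP was measured by HTRF after 30 min lysis at room temperature.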
TRPV1 PAM: enhances activation of the human vanilloid receptor TRPV1; Q8NER1; TRPV1-expressing cells, Fluo-8 calcium influx, capsaicin EC20 potentiation; host cell line not named in the record; control for the full effect not named in the record; potentiation, % at 8.33 µM; actives 0.02% (n = 320,000); AID 540277; active means potentiation above 80%; inconclusive means 30% to 80%; inactive means below 30%; further: 0% is about no effect
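Fluo-8 calcium influx in TRPV1-expressing cells, kinetic read (ex 480/em 520 nm). Compound added and read 3 min for agonist activity, followed by capsaicin at EC20 final and 2 min further read for enhancement.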
The depositor's hits bear a star; ? = inconclusive; nt = not tested or not shown; [ ] = another dose, or the depositor's remark.

Values run as follows: Sfp inh	ClpP mod	Menin MLL FP FL	D2 potentiator	gsp agonist	gsp antagonist	TRPV1 PAM
> CCc1cccc(NC(=O)CC2SC(N3CCCC3)=NC2=O)c1 (stereo not given)
    nt	-1.6%	nt	-34	18%[15.4 µM]	4%	nt
> O=[N+]([O-])c1cccc(C2NCC(c3ccccc3Cl)c3c2[nH]c2ccccc32)c1 (stereo not given)
    1%	-3.2%	1.0	-14	-9%[15.4 µM]	-14%	-2
> COc1ccc(-n2c(SCC(N)=O)nc3sc4c(c3c2=O)CCN(C)C4)cc1
    17%	-6.9%	4.9	3	-29%	-5%	9
> COc1cc([N+](=O)[O-])ccc1NC(=S)N1CCN(c2ccccn2)CC1
    -16%	-9.3%	-1.0	-12	10%	-3%	2
> COc1cc(/C=C/C(=O)OCC(=O)NCc2ccco2)ccc1OC(F)F
    -14%	-13%	nt	-7	-4%	-12%	11
> Cc1ccccc1-c1ocnc1C(=O)Nc1ccccc1NC(=O)c1ccccn1
    ?	nt	-4.4	-5	-3%	?	13
> Cc1cc2c(c(C)c1Br)C(c1ccc3c(c1)OCO3)CC(=O)O2 (stereo not given)
    -12%	0.0%	0.3	nt	nt	-9%	nt
> Clc1cccc(Cl)c1CNC1CCCC1
    -8%	3.5%	3.4	-7	-17%	6%	-3
> COc1ccc(OC)c(NC(=O)Cn2cc(C#N)c3cc(Br)ccc32)c1
    ?	1.1%	4.0	-11	-42%[inhibitor]	-16%	6
> COc1ccc(C2=NOC(Cn3nc(-c4ccccc4)cc3C(=O)NCc3ccc(C)cc3)C2)cc1 (stereo not given)
    nt	-4.3%	nt	-16	nt	-3%	nt
> CCOC(=O)CC(=O)Nc1c(C)cc(C)cc1C
    -6%	-1.5%	-1.1	-4	27%	11%	3
> Cc1cccc2cc(CN(CC3CCCO3)C(=O)NC3CCCCC3)c(=O)[nH]c12 (stereo not given)
    4%	?	-0.2	-10	19%	-1%	-21
> Cc1nc(Nc2ccc3c(c2)OCCO3)c2c(C)c(C)sc2n1
    7%	-1.6%	3.9	-15	15%[15.4 µM]	-7%	-28
> Cc1nn(CC#N)c(=O)n1N(C)c1ncc(C(F)(F)F)cc1Cl
    0%	nt	0.0	1	-6%[15.4 µM]	13%	-4
> C/C(N)=C(/C#N)C(=O)COC(=O)c1cc(S(=O)(=O)N2CCCCC2)ccc1C
    24%	0.8%	0.3	5	?	-22%	-3
> CCC1CC(CSc2ncn[nH]2)OC1=O (stereo not given)
    9%	2.5%	4.4	0	-35%[inhibitor]	6%	-4
> CC1CCCN(CCCNC(=O)c2ccc(CS(=O)(=O)Cc3cccc(Cl)c3)o2)C1 (stereo not given)
    14%	-0.3%	nt	-18	-4%	11%	-18
> CCN(CC)c1ccc(C(=O)Nc2ccccc2)cc1[N+](=O)[O-]
    -2%	nt	-1.6	-14	-2%[15.4 µM]	nt	-13
> O=C(Nc1nnc(C2CCCO2)s1)c1cccs1 (stereo not given)
    2%	-0.4%	0.3	-14	-9%	8%	-11
> O=C(Cn1nnc(-c2ccccc2NC(=O)c2ccccc2F)n1)NCc1ccco1
    -16%	-2.5%	-1.6	9	-5%	27%	-4
> COc1ccc(CCN2C(=O)C3C4CCC(C4=C(C)C)C3C2=O)cc1OC (stereo not given)
    1%	0.7%	4.3	17	-53%[inhibitor]	-5%	-7
> O=C(CCc1ccccc1)NCC(c1ccco1)N1CCc2ccccc21 (stereo not given)
    nt	-2.4%	nt	2	-45%[inhibitor]	3%	-9
> O=C1NCCCC2c3cc(O)c4ccccc4c3OC12N1CCCCC1 (stereo not given)
    20µM*	nt	-8.5	nt	nt	nt	3
> Cc1ccc2nc(N3CCCCC3)c(C=O)c(=O)n2c1
    4%	nt	-0.8	nt	nt	nt	0
> C[C@H]1CN([C@@H](C)CO)C(=O)c2cccc(NC(=O)C3CC3)c2O[C@H]1CN(C)Cc1ccc(C(F)(F)F)cc1
    nt	-2.2%	nt	-23	-27%	-5%	nt
> C=CCOc1nc2c(c(=O)n(C)c(=O)n2C)n1C
    -8%	-1.4%	0.0	-2	27%	3%	-5
> CC(C)(C)C(=O)CSc1nc2c(c(-c3cccs3)c1C#N)CCC2
    -8%	-1.0%	8.0	-3	?	-10%	-1
> CN(C)S(=O)(=O)c1ccc(NC(=O)C2CC(=O)N(Cc3ccccc3)C2)cc1 (stereo not given)
    -9%	nt	2.1	-6	-3%[15.4 µM]	3%	-7
> O/N=C(\CN1CCCCC1)c1ccccc1
    3%	-0.5%	2.3	-7	0%[15.4 µM]	4%	-3
> Cc1cc2oc(=O)cc(CN3CCC(C)CC3)c2cc1C
    -4%	-2.8%	3.2	-2	12%	3%	-22
> COC(=O)c1c(C)nc2ccccc2c1C(=O)O
    8%	-3.2%	-1.1	9	9%	8%	14
> Cc1ccc(CN2CCN(Cc3ccc(OCCO)cc3)CC2CCO)o1 (stereo not given)
    23%	nt	-4.6	2	0%	13%	4
> CN1CCN(c2ccc(Cl)cc2NC(=O)c2ccc([N+](=O)[O-])cc2)CC1
    -9%	1.5%	0.6	-4	8%	8%	0
> COc1ccccc1COCC(O)CN(Cc1ccco1)Cc1ccccc1O (stereo not given)
    -17%	1.2%	1.9	-17	-10%	-5%	-8
> OCCn1c(Cl)nc2ccccc21
    6%	0.9%	-1.1	10	1%	3%	-8
> Cc1ccccc1COC(=O)CN1C(=O)NC2(CCCC2)C1=O
    nt	nt	nt	9	22%[15.4 µM]	11%	6
> O=C(COc1cccc2cccnc12)NCC(F)(F)F
    -4%	-2.6%	-4.2	12	-9%	7%	4
> CCOC(=O)c1ccc2[nH]c3c(c2c1)CCCC3O (stereo not given)
    -2%	nt	1.8	-13	0%[15.4 µM]	nt	3
> O=C(CCCc1ccccc1)N=C1SC2CS(=O)(=O)CC2N1c1ccccc1F (stereo not given)
    9%	-1.7%	-5.5	5	?	-6%	0
> O=C(Cn1[nH]c(=O)c2ccccc2c1=O)N1CC=C(c2ccccc2)CC1
    5%	-3.3%	0.4	2	-5%	-25%	-34
> Cc1cccc(N(C(=O)CCC(=O)Nc2ccccn2)C(C(=O)NC(C)C)c2ccc(O)cc2)c1 (stereo not given)
    15%	-2.0%	-1.9	11	-2%	-1%	-19
> O=C(O)CN1CCN(Cc2ccccc2F)C1=O
    4%	2.9%	4.3	-11	-3%	-1%	5
> Cc1ccc(C(=O)NCC(=O)NCC(c2cccs2)N(C)C)cc1C (stereo not given)
    nt	-3.8%	nt	-33	24%	4%	nt
> COc1ccc(N=c2cc(-c3ccc(OC)cc3)oc3ccccc23)cc1
    ?	-1.5%	0.2	-14	8%	-12%	-10
> O=c1c2ccccc2nc(SCc2ccc([N+](=O)[O-])cc2)n1-c1ccc(Cl)cc1
    ?	nt	3.8	-11	9%[15.4 µM]	5%	-12
> Cc1ccc(C)c(NS(=O)(=O)c2ccc(OCC(=O)NCc3ccco3)cc2)c1
    -18%	0.7%	3.5	-7	-7%	-13%	-16
> COc1ccc(OC)c(Nc2nc(NCCCN(C)C)nc(N)c2[N+](=O)[O-])c1
    -11%	nt	-3.3	-15	19%	7%	-4
> COc1ccc(-c2noc(N3CCC(C(=O)Nc4ccc(F)cc4F)CC3)n2)cc1
    11%	3.0%	2.2	-4	12%	6%	-14
> O=C(NCCc1ccccc1)c1c(F)c(F)c(F)c(F)c1F
    -3%	-1.4%	3.3	-18	0%	22%	-17
> O=C(c1oc(=O)c2ccccc2c1-c1ccccc1)N1CCC(O)CC1
    24%	-6.5%	2.0	-8	-53%[inhibitor]	3%	nt

Continued.
Values run as follows: Sfp inh	ClpP mod	Menin MLL FP FL	D2 potentiator	gsp agonist	gsp antagonist	TRPV1 PAM
> COc1cc(CCC(C)NCc2ccccc2)ccc1O (stereo not given)
    2%	nt	2.0	-12	15%	1%	-24
> COc1ccc2c(CC(=O)N[C@@H](Cc3ccccc3)C(=O)O)cc(=O)oc2c1C
    7%	3.6%	3.1	-11	35%	-5%	13
> Cc1cc(C(=O)NC(C)C2CCCO2)cs1 (stereo not given)
    10%	0.9%	-1.3	-2	13%	7%	5
> COc1ccc(S(=O)(=O)N2CCCC2CNC(=O)C(=O)Nc2cccc(F)c2)cc1 (stereo not given)
    nt	?	nt	7	-14%	-3%	17
> O=C1OC(c2cccc3c(F)cccc23)c2ccccc21 (stereo not given)
    nt	-8.9%	nt	-14	9%	nt	nt
> Nc1nonc1-n1nnc(C(=O)N/N=C/c2c(Cl)cccc2Cl)c1CSC1=NCCS1
    10%	0.6%	-2.8	-7	?	-27%	1
> Cc1ccnc(NC(=O)Nc2ccc(Br)cc2Cl)c1
    7%	2.2%	-0.3	-4	-48%	1%	10
> Cc1ccc(NC(=O)NCC2CCN(Cc3cc(C)ccc3Cl)CC2)c(C)c1
    5%	0.8%	-5.8	-19	8%	11%	-1
> O=C1CC(C(=O)N2CCN(S(=O)(=O)c3cccc(F)c3)CC2)CN1Cc1ccccc1Cl (stereo not given)
    nt	?	nt	11	9%	0%	9
> CC(C)=CC(=O)Nc1c(C)cc(C)cc1Cl
    25%	nt	2.6	-3	-13%	6%	-4
> Cc1sc2nc3c(C(=O)N4CCN(c5ccccn5)CC4)cccn3c(=O)c2c1C
    6%	nt	3.0	nt	nt	nt	9
> COc1ccccc1CN1CC(C(=O)NC2CCCCC2)CC1=O (stereo not given)
    16%	-0.6%	0.1	10	-24%	-2%	2
> CN(C)C(=O)c1ccc(-n2nc(C(F)(F)F)c3c2CCCC3)cc1
    1%	-8.4%	2.5	-31	-2%	-2%	-38
> COc1ccc(Cl)cc1NC(=O)N(C)Cc1c(C)nn(C)c1C
    29%	2.1%	0.1	-13	14%	-4%	21
> COc1ccc(C(=O)/C=C/Nc2ccc(S(=O)(=O)Nc3cccc(C(C)=O)c3)cc2)cc1
    0%	?	0.6	27	-33%[inhibitor]	-30%	7
> Cc1c(C(=O)N2CCCCC2)c(S(=O)(=O)N2CCN(c3ccc(F)cc3)CC2)c(C)n1C
    14%	-5.7%	-4.5	-9	16%	0%	-4
> COc1ccc(-c2noc(=O)n2Cc2ccc(C#N)cc2)cc1
    6%	-18%	-2.3	-1	5%[15.4 µM]	-1%	13

From PubChem
